Screening results as filed in PubChem BioAssay.
KAT2A inh: qHTS Assay for Inhibitors of GCN5L2; GCN5L2 HAT assay, ThioGlo1 CoA-SH fluorescence; Potency, µM (doses to about 58.9 µM), for inactives: top-dose activity change, negative = inhibition, most hits filed as inhibitors; hit rate 0.21% among 390,000; active = well fitted inhibition curve with a large enough effect; inconclusive = small, poorly fitted or top-dose-only effect, or another doubt; inactive = no such curve, though single readings can be large or run the other way
Target sequence (Q92830 whole entry, looked up): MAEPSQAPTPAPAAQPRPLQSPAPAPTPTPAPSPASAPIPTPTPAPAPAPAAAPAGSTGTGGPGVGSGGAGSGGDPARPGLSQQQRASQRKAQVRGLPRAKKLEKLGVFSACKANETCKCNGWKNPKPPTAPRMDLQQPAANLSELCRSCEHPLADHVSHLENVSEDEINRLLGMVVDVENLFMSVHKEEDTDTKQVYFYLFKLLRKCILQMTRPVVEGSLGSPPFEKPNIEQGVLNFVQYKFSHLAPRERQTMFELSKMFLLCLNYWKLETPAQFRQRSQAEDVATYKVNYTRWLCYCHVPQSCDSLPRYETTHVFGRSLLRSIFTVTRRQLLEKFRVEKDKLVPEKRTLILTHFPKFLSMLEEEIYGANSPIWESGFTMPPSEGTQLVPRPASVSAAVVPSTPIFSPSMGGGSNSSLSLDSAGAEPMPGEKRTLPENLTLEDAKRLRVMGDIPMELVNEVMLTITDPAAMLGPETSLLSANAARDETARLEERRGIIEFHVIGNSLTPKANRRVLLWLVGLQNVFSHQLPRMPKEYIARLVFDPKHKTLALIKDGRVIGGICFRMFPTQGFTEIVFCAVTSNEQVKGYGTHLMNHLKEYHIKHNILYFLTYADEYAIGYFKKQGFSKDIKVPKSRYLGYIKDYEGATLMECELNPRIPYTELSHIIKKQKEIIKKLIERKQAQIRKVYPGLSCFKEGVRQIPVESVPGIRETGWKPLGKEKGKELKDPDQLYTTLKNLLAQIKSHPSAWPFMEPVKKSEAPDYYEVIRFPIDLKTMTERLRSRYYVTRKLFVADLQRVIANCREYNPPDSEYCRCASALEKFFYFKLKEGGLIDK
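GCN5L2 (20 nM) in 50mM HEPES pH 7.5, 0.1mM EDTA, 0.01% Tween-20 preincubated 15 min with compounds at room temperature. Reaction started with H3(1-25) 75uM, acetyl-CoA 70uM, ThioGlo1 50uM; CoA-thiol fluorescence (Ex340/Em540) read at 0 and 20 min.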
An asterisk follows results filed as active; u = inconclusive; & = joins results of further samples. % is set by controls: 0 for no effect and ±100 for the full control effect; potency is the fitted concentration of half-maximal effect. These rows are one share of the data, and most or all hits are left out here.

SMILES	KAT2A inh
COc1ccc(C2/C=C\CN(C(=O)NC(C)C)CC(=O)N2Cc2ccc(F)cc2)cc1 (stereo unspecified)	24%
O=C(COC(=O)CNS(=O)(=O)c1ccc(F)c(F)c1F)NC1CC1	0%
OCCNc1nc(N2CCN(Cc3ccccc3)CC2)nc2ccccc12	-1%
CCN(CC)c1ccc(C(=O)NNC(=O)c2ccc3c(=O)n4c(nc3c2)CCC4)cc1	-29%
O=c1c(Cl)c(N2CCN(S(=O)(=O)c3ccccc3)CC2)cnn1-c1ccccc1	-2%
CCCCNC(=O)CCn1c(=O)c2cccn2c2cccnc21	-16%
O=C(CCCOc1cccc(Br)c1)NC1CCC(O)CC1 (stereo unspecified)	u
CCc1cc(=O)[nH]c(SCc2cccnc2)n1	0%
COc1ccc(C2C(C(=O)c3ccco3)=C(O)C(=O)N2CC2CCCO2)cc1 (stereo unspecified)	-5%
CCc1ccc(NC(=O)COc2ccc(/C=C(/C#N)c3nc4ccccc4[nH]3)cc2OC)cc1	u
Cc1[nH]c(=O)c(C#N)c(C)c1CCC(=O)Nc1cc(S(C)(=O)=O)ccc1Cl	-9%
O=C(/C=C/c1ccccc1)NCC(=O)N/N=C/c1ccco1	5%
Cc1noc(C)c1CSc1cc(C)c2ccccc2n1	1%
Cc1c(NC(=O)C(C)N2C(=O)NC3(CCC(C)CC3)C2=O)c(=O)n(-c2ccccc2)n1C (stereo unspecified)	5%
CCOC(=O)N1CCC(NC(=O)C2CCN(S(=O)(=O)c3c(C)noc3C)CC2)CC1	-4%

Entries listed so far with a Cl atom:
SMILES	KAT2A inh
O=c1c(Cl)c(N2CCN(S(=O)(=O)c3ccccc3)CC2)cnn1-c1ccccc1	-2%
Cc1[nH]c(=O)c(C#N)c(C)c1CCC(=O)Nc1cc(S(C)(=O)=O)ccc1Cl	-9%

Next section.
SMILES	KAT2A inh
COc1ccc(OC)c(NC(=O)[C@@H]2CCCN2C(=O)c2cccs2)c1	-1%
COc1ccccc1N(C)S(=O)(=O)c1ccc(C(=O)OC(C)C(=O)NCc2ccc3c(c2)OCO3)cc1 (stereo unspecified)	-8%
Nc1ccn(CC(=O)NCc2ccccn2)c(=O)n1	-1%
COCCn1nnnc1C(c1ccc(Cl)cc1)N1CCN(C(=O)c2ccco2)CC1 (stereo unspecified)	-4%
COC(=O)c1cc(S(=O)(=O)N2CCC(C)CC2)ccc1F	-17%
COc1ccc(/C=C/C(=O)OCC(=O)Nc2ccc(Cl)cc2F)cc1S(=O)(=O)N1CCOCC1	2%
O=C(O)CNS(=O)(=O)c1cccc2nsnc12	-3%
COc1ccc(OC)c(NC(=O)NCCc2cccc(Cl)c2)c1	0%
CCc1ccc(NC(=O)Cn2cnc3c(=O)n(C)c(=O)n(C)c32)cc1	-13%
Cc1ccc(-c2noc(CCCC(=O)NC3CCCC3)n2)cc1	-4%
COc1ccc(S(=O)(=O)NCCSC(C)(C)C)cc1	-7%
CC(C)n1c(SCC(=O)c2ccc3c(c2)OCCO3)nc2c1c(=O)n(C)c(=O)n2C	2%
CC(=O)c1ccc(-n2nnnc2SCC(=O)N2CCc3ccccc3C2)cc1	0%
CCC(=O)N/N=C/c1ccc(-c2ccc([N+](=O)[O-])cc2)o1	-3%
COC(=O)C1=C(C)N(Cc2ccccc2)C(=NCc2ccccc2)N[C@H]1c1ccccc1	1%&-4%

5 compounds drawn at random from the list so far:
SMILES	KAT2A inh
O=C(COC(=O)CNS(=O)(=O)c1ccc(F)c(F)c1F)NC1CC1	0%
COc1ccc(S(=O)(=O)NCCSC(C)(C)C)cc1	-7%
Nc1ccn(CC(=O)NCc2ccccn2)c(=O)n1	-1%
CCc1cc(=O)[nH]c(SCc2cccnc2)n1	0%
CCN(CC)c1ccc(C(=O)NNC(=O)c2ccc3c(=O)n4c(nc3c2)CCC4)cc1	-29%

6 compounds from above, ordered by number of heavy atoms, smallest number first:
SMILES	KAT2A inh
COc1ccc(S(=O)(=O)NCCSC(C)(C)C)cc1	-7%
CCC(=O)N/N=C/c1ccc(-c2ccc([N+](=O)[O-])cc2)o1	-3%
COc1ccc(OC)c(NC(=O)NCCc2cccc(Cl)c2)c1	0%
CCc1ccc(NC(=O)Cn2cnc3c(=O)n(C)c(=O)n(C)c32)cc1	-13%
CC(=O)c1ccc(-n2nnnc2SCC(=O)N2CCc3ccccc3C2)cc1	0%
CC(C)n1c(SCC(=O)c2ccc3c(c2)OCCO3)nc2c1c(=O)n(C)c(=O)n2C	2%

Other compounds.
SMILES	KAT2A inh
CCOc1ccc(CC(C(N)=O)C(N)=O)cc1CN(C)C	-6%
Cc1nn(C(C)C(=O)NCc2cccs2)c(C)c1[N+](=O)[O-] (stereo unspecified)	-2%
Cc1ccc(NC(=S)NNC(=O)Cn2nc([N+](=O)[O-])cc2C)cc1	0%
CCN(CC)S(=O)(=O)c1ccc2nnn(O)c2c1	-3%
Clc1ccc(OCCn2ccnc2)c(Br)c1	-7%
O=C(COc1ccccc1)N1CCCCCCC1	1%
Cc1cccc(C(C)(C)C)c1OCCn1ccnc1	-3%
O=C(COc1ccccc1Cc1ccccc1)Nc1cccnc1	-3%
O=C(c1cc(-c2cccc(Cl)c2)on1)N1CCc2ccccc2C1	-3%
N/C(=N\OC(=O)c1ccc2ccccc2c1)c1ccc(Br)cc1	1%
CCOc1ccccc1CNS(=O)(=O)c1csc(C(N)=O)c1	-6%&17%
COc1ccc(CNC(=O)C[C@H]2C[C@H](C(=O)N3CCOCC3)[C@@]3(C)c4[nH]c5ccc(Cl)cc5c4CCN3C2=O)cc1OC	2%
COc1ccc(C(=O)Nc2nc3ccc(S(=O)(=O)N4CCCC4)cc3s2)cc1	-16%
C[C@@H]1CN([C@H](C)CO)C(=O)c2cccc(NS(=O)(=O)c3ccccc3)c2O[C@H]1CN(C)C	2%
O=C(Cc1cccs1)NCC1CCCO1 (stereo unspecified)	-9%
Cn1c(=O)[nH]c(=O)c2c1nc(Sc1ncccn1)n2CCCc1ccccc1	-1%
Cc1nc(C)c(-c2ccccc2)c(=O)[nH]1	0%
C[C@@H]1COC(=O)[C@@H](Cc2ccc(F)cc2)C/C=C\C[C@@H](CC(=O)N[C@H](CO)Cc2ccccc2)C(=O)N1	1%
COCCCNC(=O)Cn1cnc2sc(C)c(S(=O)(=O)N3CC(C)CC(C)C3)c2c1=O (stereo unspecified)	-4%
CCOc1ccc(C(C)NC(=O)c2cc(=O)[nH]c3ccccc23)cc1OCC (stereo unspecified)	-3%
NC(=O)CCCn1c(C(=O)c2cc(Cl)c(N)c(Cl)c2)c2ccc([N+](=O)[O-])cc2[n+]1[O-]	-9%
CCCOc1ccc(NC(=O)C2CC(=O)N(C)C(=Nc3cccc(OC)c3)S2)cc1 (stereo unspecified)	-16%
O=C(OCCCOC(=O)c1ccc(Br)o1)c1ccc(Br)o1	-18%
COc1ccccc1OCCNC(=O)Cc1ccc(Cl)c(Cl)c1	-1%
O=C(OCC(=O)N1CCc2ccccc21)c1cccnc1Cl	-6%
Cc1cc(C)c2c(C)[nH]nc2n1	0%
Cc1cc(NC(=O)CSc2nc3c([nH]c4ccccc43)c(=O)n2-c2ccccc2)no1	-1%
O=C(/C=C/c1ccc(F)cc1)NC(=S)N1CCN(c2ccccn2)CC1	-1%
COc1ccc(CCNC(=O)C2CCCN(S(=O)(=O)c3ccccc3)C2)cc1 (stereo unspecified)	-3%
CCc1ccc(NC(=O)COC(=O)CC2CCCC2)cc1	-5%
Cc1ccc(S(=O)(=O)NN=C2C3CC4CC(C3)CC2C4)cc1[N+](=O)[O-]	-1%
CCc1ccc(OCC(=O)Nc2c(C(=O)c3ccccc3)oc3ccccc23)cc1	-1%
Cc1cccc(C)c1NC(=O)COC(=O)c1cc(-c2cccnc2)nc2ccccc12	-8%
CC(=O)c1sc(C(C)(C)C)cc1NC(=O)CCC(=O)O	0%
COC(=O)c1c(Oc2nc(OC)cc(OC)n2)cccc1Oc1nc(OC)cc(OC)n1	1%
CCn1c(=O)n(-c2ccc3c(c2)OCO3)c2nc(-c3ccc(C(C)C)cc3)nc(C(N)=O)c21	-2%
Cc1ccc(COC(=O)CCN=C2NS(=O)(=O)c3ccccc32)cc1	-2%
CCCCOC(=O)CSCC(=O)N1N=C(c2cccs2)CC1c1ccc(F)cc1 (stereo unspecified)	-7%
COc1ccc(OC)c2sc(N(Cc3cccnc3)C(=O)c3ccc(C(C)=O)cc3)nc12	-1%
CC1CN(c2nc3ccccn3c(=O)c2/C=C(\C#N)C(=O)N2CCOCC2)CC(C)O1 (stereo unspecified)	-12%
COc1ccc(-c2cn3ccccc3n2)cc1	0%
CCCNC(=O)N1CCN(c2ncccn2)CC1	1%
CCOC(=O)c1cnc(SCC(=O)Nc2cc(OC)ccc2OC)nc1N	-7%
CCOc1ncccc1C(=O)OCC(=O)Nc1ccc2c(c1)OCCO2	-5%
COc1ccc(N(CC(=O)NC2CCCC2)C(=O)Cn2nnc(-c3ccc(OC)c(OC)c3)n2)c(OC)c1	-1%
COc1cccc(N2CC34C=CC(O3)C(C(=O)O)C4C2=O)c1 (stereo unspecified)	4%
COc1ccc([C@H]2CC(=O)C=C(c3ccc4c(c3)OCO4)C2)cc1	-3%
CC(NC(=O)c1ccc2c(c1)OCO2)c1ccccc1 (stereo unspecified)	3%
O=C(COC(=O)c1ccc(Cl)nc1)NCc1ccc2c(c1)OCO2	0%
Cc1cc(C)c(NC(=O)CN2C(=O)NC3(CCc4ccccc43)C2=O)c(Cl)c1 (stereo unspecified)	-2%
CC(C)c1nc(SCC(=O)c2ccc(F)cc2)c2ccccc2n1	-13%
Cc1ccc(S(=O)(=O)N2CCC(C(=O)OCC(=O)N3CCc4ccccc43)CC2)cc1	-8%
Cn1c(=O)c2c(SCc3c(F)cccc3Cl)nc(CC(C)(C)C)nc2n(C)c1=O	-2%
CC(=O)Nc1ccc(Br)cc1C(=O)C(=O)O	-1%
C=CCN(CC=C)C(=O)c1cccc(OC2CCN(S(=O)(=O)N(C)C)CC2)c1	-8%
Cc1ccc(S(=O)(=O)CC(=O)Nc2ccc(F)c(F)c2F)cc1	2%
COc1ccccc1/C=N/NC(=O)c1nnn(-c2nonc2N)c1CSC1=NCCS1	-10%
CCN(CC(=O)Nc1ccccc1C(F)(F)F)C(=O)c1cc(-c2ccccc2)nn1-c1ccccc1	-9%
O=C(NCc1ccc2c(c1)OCO2)C1CCCN1S(=O)(=O)c1ccc(F)cc1 (stereo unspecified)	-8%
C=C1C(=O)O[C@@]23[C@H]1CC[C@@H](C)[C@@H]2CC[C@@]1(C)O[C@@H]31	0%

(next part)
SMILES	KAT2A inh
O=C(Nc1ccc2nc(-c3ccccn3)c(-c3ccccn3)nc2c1)N1CCOCC1	5%
CN1C(=O)C(C)(C)c2cc(S(=O)(=O)N3CCC(C(=O)NCc4ccc(Cl)cc4)CC3)ccc21	-1%
CCOC(=O)c1ccccc1NC(=O)CSc1nc2cn(CC)nc2c(=O)n1Cc1ccc(Cl)cc1	-3%
Cc1nn(-c2ccc(Cl)cc2)c(N)c1C(O)(CSc1nccn1C)C(F)(F)F (stereo unspecified)	-9%
Cc1cccc2cc(CN(CCN3CCCC3)C(=O)NC3CCCCC3)c(=O)[nH]c12	0%
CCOC(=O)Cn1nc(C)n(-c2ccc(C)cc2)c1=O	-4%
COc1ccc(S(=O)(=O)N(C)CC(=O)NCCN2CCOCC2)cc1Cl	-7%
O=C(N/N=C1\CCSC1)c1cc(Cl)ccc1O	-11%
CCN(CC(=O)NCc1ccncc1)S(=O)(=O)c1ccccc1	-1%
COc1ccc(-n2c(=O)[nH]cc(C(=O)N3CCc4ccccc43)c2=O)cc1	1%
COC(=O)COc1ccc(S(=O)(=O)N2CCc3ccccc3C2)cc1	-6%
COc1ccc(NC2c3ccccc3C(=O)N2Cc2ccccc2Cl)cc1OC (stereo unspecified)	0%
CN(C)c1cc(-c2ccc(F)cc2)oc(=O)c1Cl	2%
Cc1ccc(S(=O)(=O)Cc2ccc([N+](=O)[O-])cc2)cc1	-1%
COc1ccc(-c2nnc(C3CCN(S(=O)(=O)c4cccc(Cl)c4)CC3)o2)cc1	-3%
Cc1cccc2cccnc12	-2%
CC(=O)c1ccc(OC(=O)N(c2ccccc2)c2ccccc2)cc1	-12%
CC(C)(C)c1ccc(NC(=O)C2=CN3CCS(=O)(=O)N=C3C=C2)cc1	-5%
CCc1ccc2c(CC(=O)Nc3nnc(C4CC4)s3)coc2c1	15%
CC(C)N(C(=O)[C@H]1CC(CC(=O)NCc2ccco2)C(=O)N2CCc3c([nH]c4ccccc34)[C@]12C)C(C)C (stereo partly specified)	-4%
Cc1cc(NS(=O)(=O)c2ccc(NC(=S)NC(=O)c3ccc(F)cc3Cl)cc2)no1	0%
Cc1cccc(N(CC(=O)Nc2ccc(CC#N)cc2)S(C)(=O)=O)c1	-7%
O=C(CCCSc1nc2ccccc2s1)NCc1ccc2c(c1)OCO2	-2%
CC(C)(C)c1cc(OC(=O)c2ccncc2)ccc1O	-3%
O=C(Nc1ccccc1C(F)(F)F)c1ccccn1	-2%
CCCOc1ccc(N2CC(C(=O)Nc3ncccc3C)CC2=O)cc1 (stereo unspecified)	-1%
COc1ccc(N2CCN(S(=O)(=O)c3c(C)noc3/C=C/N(C)C)CC2)cc1	-5%

Entries shown so far that have bromine (five):
SMILES	KAT2A inh
O=C(CCCOc1cccc(Br)c1)NC1CCC(O)CC1 (stereo unspecified)	u
Clc1ccc(OCCn2ccnc2)c(Br)c1	-7%
N/C(=N\OC(=O)c1ccc2ccccc2c1)c1ccc(Br)cc1	1%
O=C(OCCCOC(=O)c1ccc(Br)o1)c1ccc(Br)o1	-18%
CC(=O)Nc1ccc(Br)cc1C(=O)C(=O)O	-1%
